Source: PubChem BioAssay
YopH inh: YopH (Yersinia) phosphatase inhibition. fluorescence Ex485/Em525. hit rate 0.16% among 140,000. AID 898. inhibition, %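 (about 10 µM by stock and volumes)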;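 active = inhibition of 50% or more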;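 also: controls were vehicle for no effect and minimum signal wells for full effect; inactives centre near -20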
Mtb betalactam: beta-lactam sensitization of Mtb H37Rv; hit rate 0.27% among 330,000; M. tuberculosis H37Rv growth with meropenem, percent inhibition; hits of this screen are not shown here; inhibition, % at 25 µM;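 active = about 74% or more and at least 40 points above the plate without the antibiotic, then above 30% in a dose series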;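 also: growth measured after seven days incubation then overnight dye step; 0% = bacteria only wells and 100% = bacteria with antibiotic; twin plates without the antibiotic show which effects depend on it; some results filed as inactive read as strong as hits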
Mtb growth: M. tuberculosis H37Rv growth inhibitors, H37Rv strain (AID 1626); M. tuberculosis H37Rv growth inhibition; higher % means a stronger effect; one-dose inhibition, % at 10 µM; IC50 in µM for titrated hits; hit rate 0.95% among 220,000;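 active = confirmed in a dose series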;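 also: bacteria incubated seven days before Alamar blue readout; 0% = bacteria only wells and 100% = bacteria with antibiotic wells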
Arbovirus anti: blocks arbovirus infection; arbovirus infection cell-based antiviral screen; hit rate 0.37% among 200,000; inhibition, % at 10 µM; AID 1251;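 active = inhibition from about 30%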;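 also: bluetongue infection of BSR cells; cell survival read as ATP light after 72 h; 0% = infected wells without compound and 100% = uninfected wells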
RecA intein inh: blocks M. tuberculosis RecA intein splicing | inhibition, %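 (about 9 µM by stock and volumes)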 | cell-free RecA intein splicing, fluorescence | P9WHJ3 | hit rate 0.75% among 290,000; in the data active = inhibition above about 30%;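 also: 0% = vehicle wells and 100% = reference inhibitor control wells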
Target sequence (P9WHJ3 whole entry, looked up): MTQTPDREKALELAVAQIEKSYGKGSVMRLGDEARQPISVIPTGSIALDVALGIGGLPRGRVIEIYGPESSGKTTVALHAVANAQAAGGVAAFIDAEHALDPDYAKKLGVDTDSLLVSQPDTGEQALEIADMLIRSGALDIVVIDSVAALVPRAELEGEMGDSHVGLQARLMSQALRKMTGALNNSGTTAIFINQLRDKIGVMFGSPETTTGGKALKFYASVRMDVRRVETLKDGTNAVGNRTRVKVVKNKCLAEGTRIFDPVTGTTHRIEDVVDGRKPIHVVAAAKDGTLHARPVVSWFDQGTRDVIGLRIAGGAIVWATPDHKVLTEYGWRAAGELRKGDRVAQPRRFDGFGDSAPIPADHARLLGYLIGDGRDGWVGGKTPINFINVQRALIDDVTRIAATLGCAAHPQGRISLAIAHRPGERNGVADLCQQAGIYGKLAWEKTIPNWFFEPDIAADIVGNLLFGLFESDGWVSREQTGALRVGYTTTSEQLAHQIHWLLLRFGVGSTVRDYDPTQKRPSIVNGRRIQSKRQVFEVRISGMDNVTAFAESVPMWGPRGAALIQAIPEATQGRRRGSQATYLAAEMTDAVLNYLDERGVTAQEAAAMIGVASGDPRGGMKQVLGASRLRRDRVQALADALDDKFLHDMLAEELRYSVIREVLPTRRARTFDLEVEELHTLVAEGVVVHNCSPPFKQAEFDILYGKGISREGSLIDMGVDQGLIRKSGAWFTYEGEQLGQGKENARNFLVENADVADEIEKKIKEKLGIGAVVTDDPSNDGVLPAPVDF
Arbovirus anti repeat: also measured in Arbovirus anti; calls as there; inhibition, %; measured here: 10K subset replicate screen; many hits read low in the repeat;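 first of two repeat runs on a subset; 0% = infected and 100% = uninfected wells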
* = called active by the depositor; x = not tested or not shown. These rows are one share of the data. The share of hits here may be higher or lower than overall.

SMILES | YopH inh | Mtb betalactam | Mtb growth | Arbovirus anti | RecA intein inh | others
COc1ccc(CNC(=O)CN(Cc2ccccc2Cl)C(=O)c2csnn2)cc1 | x | -6 | x | x | 1.1
COc1ccccc1C(CCNS(=O)(=O)c1ccc(C)cc1)c1ccco1 (stereo not drawn) | -22 | 10 | 0% | -18 | 9.6
N=C1/C(=C\c2ccc(OC(=O)c3ccco3)cc2)C(=O)N=C2SC=NN12 | x | x | 61% | 7 | 6.1
O=C(O)CCN(Cc1ccccc1)S(=O)(=O)c1ccc(Cl)cc1F | x | -4 | -1% | 3 | 3.3
CC(C)=CCc1c(O)cc2c(c1O)C(=O)CC(c1ccccc1)O2 (stereo not drawn) | x | -6 | -7% | x | -0.1
Cc1ccc(-c2cc(-c3c(C)nn(C)c(=O)c3N)[nH]n2)cc1 | x | 0 | 7% | x | -1.6
CC1=C(C(=O)Nc2ccc(C)cc2C)C(c2cccc(Cl)c2)n2nc(C(=O)OC(C)C)nc2N1 (stereo not drawn) | -5 | 4 | 5% | -9 | -0.6
COc1ccc(C2C3=C(NCCN=C3c3ccccc3)C(=O)N2c2ccccc2)c(OC)c1 (stereo not drawn) | x | -3 | -8% | 0 | -0.6
COc1ccc(CCN2C(=O)CC(C(N)=O)SC2=Nc2ccc(F)cc2)cc1OC (stereo not drawn) | x | 2 | -26% | -3 | -0.3
NNC(=O)c1cc(C2CC2)nc2ccc(Br)cc12 | x | 1 | x | x | 0.7
NS(=O)(=O)c1ccc(-c2ccc(/C=N/NC(=O)c3ccc([N+](=O)[O-])cc3)o2)cc1 | x | 31 | 1% | x | -2.6
Cc1ccc(CN2CC(C(=O)Nc3ccc(F)c([N+](=O)[O-])c3)CC2=O)cc1 (stereo not drawn) | x | 1 | -1% | 22 | x
COc1ccc(-n2ccnc2SCC(=O)Nc2ccc(OC)cc2OC)cc1 | -47 | -12 | 1% | 2 | 4.5
S=C(N/N=C1\C2CN3CCN(C2)CC1(c1ccccc1)C3)Nc1ccccc1 | -28 | 3 | -1% | 8 | 1.9
CS(=O)(=O)N(Cc1ccccc1)c1ccc(C(=O)NN=C2CCCCCC2)cc1 | -16 | -1 | 0% | -11 | -0.7
COC(=O)C1Cc2c([nH]c3ccccc23)C(C)N1 (stereo not drawn) | -46 | -9 | 3% | 4 | 0.0
O=S(=O)(c1cccs1)N1CN(C2CCCC2)c2nc3ccccc3nc21 | x | -2 | -2% | x | 0.7
Cc1ccc(CN2CCSc3ccc(C(=O)N4CCN(c5ncccn5)CC4)cc32)cc1 | -35 | 23 | 7% | -17 | 6.3
CN(CC(=O)Nc1cccc2ccccc12)c1ccc(S(=O)(=O)N2CCOCC2)cn1 | -9 | 12 | -3% | 8 | -1.5
O=C(O)CCc1ccc(-c2cccs2)n1-c1ccc(C(=O)O)cc1 | x | -2 | -7% | -1 | -0.7 | Arbovirus anti repeat=-1
COC(=O)c1ccccc1NC(=O)CSc1nc(Nc2ccccc2)nc(N2CCOCC2)n1 | x | 14 | x | x | -0.4
OC(COc1ccccc1)CN1CCN(C(c2ccccc2)c2ccccc2)CC1 (stereo not drawn) | x | 74 | x | x | 3.6
O=C(NCc1csc(-c2cccs2)n1)c1ccsc1 | x | 5 | -11% | x | 2.3
Cc1cnn(-c2cc(N/N=C/c3ccccc3)ncn2)c1 | -37 | -6 | -5% | 2 | -1.4
CCN(CC)C(=O)CSc1nnc(-c2cnccn2)n1-c1ccc(C)cc1 | -6 | 2 | -6% | 1 | 0.3
(next part)
SMILES | YopH inh | Mtb betalactam | Mtb growth | Arbovirus anti | RecA intein inh | others
COc1cccc(-c2nnc(SCc3nc4ccccc4s3)n2C)c1 | -21 | 5 | 7% | 1 | 2.4
C=CCN1CN(S(=O)(=O)c2cccs2)c2nc3ccccc3nc21 | -51 | -4 | -3% | 2 | -4.4
CCc1nc2ccc(C(=O)N3CCN(c4cccc(Cl)c4)CC3)cc2nc1CC | x | 32 | x | x | 6.9
CN1CCN(c2oc(/C=C/c3ccccc3)nc2C#N)CC1 | x | -3 | -2% | x | -11
Cc1cc(C)c(OCCN2CC(C)OC(C)C2)c(Br)c1 (stereo not drawn) | x | -2 | 7% | -5 | 1.2
COc1ccc(C2CC(c3ccccc3C)n3nc(N)nc3N2)cc1 (stereo not drawn) | -23 | -12 | -6% | 4 | -1.5 | Arbovirus anti repeat=3
O=C(NNC(=O)c1ccccc1[N+](=O)[O-])c1ccccc1[N+](=O)[O-] | x | -20 | -7% | -1 | 4.0
O=C(c1ccc(S(=O)(=O)Cc2ccccc2Cl)c([N+](=O)[O-])c1)N1CCOCC1 | x | -1 | x | x | 0.2
COc1cccc(-c2csc(N3CCN(C(=S)Nc4ccccc4OC)CC3)n2)c1 | -43 | 4 | -1% | 3 | 4.0
OC(COc1ccc(CN2CCCCO2)cc1)CN1CCCCC1 (stereo not drawn) | x | -8 | -1% | 2 | -1.9
COc1ccccc1C(=O)C1CCCN(Cc2cccc(OCCO)c2)C1 (stereo not drawn) | x | -8 | x | x | 0.6
COc1ccccc1-n1c(O)c(C=NCCN2CCNCC2)c(=O)[nH]c1=O | 29 | -3 | -6% | 3 | -0.9
O=C(NCCOc1ccccc1F)c1cccc(S(=O)(=O)N2CCN(c3ccccc3)CC2)c1 | x | 3 | x | x | -0.6
O=C1c2ccccc2CN1C(CO)Cc1ccccc1 (stereo not drawn) | x | -9 | x | x | -0.3
O=C(CN(Cc1ccco1)C(=O)CCC(=O)Nc1ccccn1)NCc1ccccc1 | x | 21 | x | x | -0.9
Cc1cc(C)c(S(=O)(=O)NCC23C=CC(O2)C2C(=O)N(c4ccccc4)C(=O)C23)c(C)c1 (stereo not drawn) | -31 | -5 | -6% | 11 | -3.2
COc1cc2c(cc1OC)C(c1ccc(C)cc1)NC(=O)C2 (stereo not drawn) | x | -3 | x | x | -1.1
CCOC(=O)CC(=O)CSc1nc(-c2cccnc2)cc(C)c1C#N | -34 | 15 | 0% | 0 | -2.7
Cc1noc(/C=C/N(C)C)c1S(=O)(=O)N1CCCC(C(=O)Nc2ccccc2F)C1 (stereo not drawn) | x | 2 | x | x | 8.4
CC1(C)NC(=O)N(CCCSc2ccc(Cl)cc2)C1=O | -10 | -14 | -2% | -2 | 2.2
CN1CCc2cc3c(c4c2C1CC41CCC(=NO)CC1)OCO3 (stereo not drawn) | -62 | 71 | 2% | 6 | -4.6
Cc1cccc(/C=C2\Sc3ccc(C(=O)N4CCCCC4)cc3N(C)C2=O)c1 | x | 92 | x | x | -1.9
Cc1ccc2c(c1)C1CN(C)CCC1N2C(=O)Nc1cccc(Cl)c1 (stereo not drawn) | -3 | -14 | 1% | -18 | 1.5
Cc1cc(Cn2nnc3ccccc32)c(O)c(C(C)(C)C)c1 | x | 4 | x | x | 5.7
Cc1ccc(N(CC(=O)NC2CCCC2)C(=O)CNC(=O)c2cccs2)cc1C | x | 4 | x | x | 1.5
Continuation:
SMILES | YopH inh | Mtb betalactam | Mtb growth | Arbovirus anti | RecA intein inh | others
Cc1ccc2[nH]c(=O)c(COC(=O)c3ccccn3)cc2c1 | 0 | 34 | 7% | 4 | 0.6
Cc1cc2sc(NC(=O)c3ccco3)nc2cc1Cl | x | 5 | x | x | -0.8
COc1ccc(-c2csc(Nc3ccccn3)n2)cc1 | x | 69 | 27% | 6 | 4.2
Cc1ccc(C(C)C)cc1OCCN1CCCC1 | -29 | 3 | -1% | 4 | 3.1
CCOC(=O)c1c(NC(=O)c2cccs2)sc(C)c1C | -19 | -4 | -2% | -1 | -9.6
CCCC(=O)Nc1ccc(NC(=S)NC(=O)c2cccs2)cc1 | x | x | 1% | -2 | -1.3
CCN(c1ccccc1)S(=O)(=O)c1cccc(C(=O)OCc2nc3sc(C)c(C)c3c(=O)[nH]2)c1 | -29 | -6 | 3% | 14 | -0.5
CCOC(=O)c1c(C)[nH]c(N=Nc2cc(C(=O)O)cc(C(=O)O)c2)c1C | x | -1 | -16% | x | -4.1
Cc1ccc2c(c1)-c1cc(C)nn1C(c1ccc3c(c1)OCO3)N2 (stereo not drawn) | -21 | 76 | x | -13 | 0.8
CCc1c(C)nc(N2CCN(c3ccc(OC)cc3)CC2)[nH]c1=O | x | -1 | x | x | -0.6
NC(=O)c1ccc(-n2nnnc2SCC(=O)c2ccc(O)c(O)c2)cc1 | x | 4 | -2% | 11 | -0.1
CSc1nc2ncc3c(n2n1)CC(C)(C)CC3=O | x | 2 | 6% | 2 | -1.5
CCOc1ccc(CCNC(=O)CN2C(=O)NC3(CCc4ccccc43)C2=O)cc1OCC (stereo not drawn) | x | -6 | x | x | 0.1
OCCC1CN(Cc2cccn2-c2cccnc2)CCN1CCc1ccccc1 (stereo not drawn) | x | -1 | 0% | 0 | 0.1
CCCCNC(=S)NNC(=O)c1ccncc1 | x | 4 | -2% | 1 | -1.3
O=S(=O)(NCC(c1ccccc1)N1CCC(O)CC1)c1ccc(Cl)cc1 (stereo not drawn) | x | 3 | x | x | 0.3
Cc1ccc(C(C(=O)NC(C)(C)C)N(Cc2cccs2)C(=O)c2ccc3c(c2)OCCO3)cc1 (stereo not drawn) | -27 | 5 | 10% | 4 | -0.5
Cc1ccccc1-n1nc2c(c1NC(=O)/C=C\c1ccc3c(c1)OCO3)CSC2 | -10 | 0 | x | -16 | 1.4
Cc1cccc(NC(=S)NN2CCN(C)CC2)c1 | -7 | -9 | -13% | 5 | -3.9
Cc1ccc(Cc2c(C)[nH]c(=S)[nH]c2=O)cc1 | x | 3 | -8% | x | -1.6
N[C@@H](CO)c1nnc([C@H](CCC(=O)O)NC(=O)C2CCNCC2)o1 | x | -4 | -1% | 6 | 0.7
N#Cc1c(NC(=O)CSc2ncnc3sccc23)oc(-c2ccco2)c1-c1ccco1 | 9 | -4 | 7% | -1 | -0.1
COc1ccc(CC(=O)Nc2nc(C)cs2)cc1 | x | -4 | 2% | 7 | 1.9
Cc1ccc(C2N(c3nccs3)C(=O)C3CCCN32)cc1 (stereo not drawn) | -27 | -5 | -7% | 4 | 0.8
Cc1nc(C)c(C(=O)N/N=C/c2ccco2)s1 | x | 5 | 2% | 4 | -1.7
Continued.
SMILES | YopH inh | Mtb betalactam | Mtb growth | Arbovirus anti | RecA intein inh | others
Cc1ccc(NC(=O)C[n+]2cc(-c3ccccc3)n3c2CCC3)c(C)c1 | x | -12 | -4% | x | 1.3
C/C(=N\N1CCN(c2ccccc2)CC1)c1ccco1 | -10 | -1 | 0% | -8 | -1.0
COc1ccc(CCNC(=O)c2cc(S(=O)(=O)N3CCOCC3)cn2C)cc1OC | x | 7 | x | x | -2.3
CCCCN1C(=O)/C(=C(/C#N)C(=O)N2CCCC2)c2ccccc21 | x | -1 | -1% | x | 0.3
O=C(COC(=O)c1ccco1)Nc1nc2ccc([N+](=O)[O-])cc2s1 | x | -4 | -6% | x | 0.2
Cc1ccc(S(=O)(=O)c2nc(-c3ccco3)oc2SCC(N)=O)cc1 | x | -5 | x | x | 1.1
Cc1ccccc1CN1C(=O)c2ccccc2Sc2ccc(C(=O)NCCCN3CCOCC3)cc21 | x | 75 | x | x | -8.8
N#C/C(=C\c1ccc(F)c(F)c1)C(=O)NC1CCCCC1 | -25 | 42 | 8% | 17 | 6.2
COCCn1c(SCC(=O)NNC(=O)c2ccccc2)nc2ccccc2c1=O | -27 | -1 | 4% | 4 | 0.0
CC(CCc1ccccc1)NC(=O)CNC(=O)N1CC(=O)Nc2ccccc21 (stereo not drawn) | x | 5 | x | x | -0.5
CN1C(=S)SC(C)(C)C1NO (stereo not drawn) | -23 | -10 | 3% | 1 | -3.1

Eleven entries from above, arranged by number of heavy atoms, rising:
SMILES | YopH inh | Mtb betalactam | Mtb growth | Arbovirus anti | RecA intein inh | others
CC1(C)NC(=O)N(CCCSc2ccc(Cl)cc2)C1=O | -10 | -14 | -2% | -2 | 2.2
CCc1c(C)nc(N2CCN(c3ccc(OC)cc3)CC2)[nH]c1=O | x | -1 | x | x | -0.6
COc1ccc(C2CC(c3ccccc3C)n3nc(N)nc3N2)cc1 (stereo not drawn) | -23 | -12 | -6% | 4 | -1.5 | Arbovirus anti repeat=3
Cc1ccc(NC(=O)C[n+]2cc(-c3ccccc3)n3c2CCC3)c(C)c1 | x | -12 | -4% | x | 1.3
CCN(CC)C(=O)CSc1nnc(-c2cnccn2)n1-c1ccc(C)cc1 | -6 | 2 | -6% | 1 | 0.3
Cc1ccccc1-n1nc2c(c1NC(=O)/C=C\c1ccc3c(c1)OCO3)CSC2 | -10 | 0 | x | -16 | 1.4
Cc1noc(/C=C/N(C)C)c1S(=O)(=O)N1CCCC(C(=O)Nc2ccccc2F)C1 (stereo not drawn) | x | 2 | x | x | 8.4
Cc1cc(C)c(S(=O)(=O)NCC23C=CC(O2)C2C(=O)N(c4ccccc4)C(=O)C23)c(C)c1 (stereo not drawn) | -31 | -5 | -6% | 11 | -3.2
COc1ccc(C2C3=C(NCCN=C3c3ccccc3)C(=O)N2c2ccccc2)c(OC)c1 (stereo not drawn) | x | -3 | -8% | 0 | -0.6
O=C(NCCOc1ccccc1F)c1cccc(S(=O)(=O)N2CCN(c3ccccc3)CC2)c1 | x | 3 | x | x | -0.6
Cc1ccccc1CN1C(=O)c2ccccc2Sc2ccc(C(=O)NCCCN3CCOCC3)cc21 | x | 75 | x | x | -8.8
